TRPML1 blocker – human mucolipin-1 channel inhibition; AID 624415; activity change, negative = inhibition, % (test concentration not listed); hit rate 0.02% among 390,000; Q9GZU1; TRPML1-inducible cells, Ca2+ dye fluorescence, FDSS; active compounds read low; inhibition of EC80 agonist-evoked calcium signal; in the data active means activity change below about -50%; inconclusive means about -30% to -50%; inactive means above about -30%;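 further: stimulus is agonist 54-4 at its EC80 concentration; on the % scale 0 is the no-effect control and ±100 the full control effect; compound concentration not given in the record; the text of the record puts the active cut at -80%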
Target sequence (Q9GZU1 whole entry, looked up): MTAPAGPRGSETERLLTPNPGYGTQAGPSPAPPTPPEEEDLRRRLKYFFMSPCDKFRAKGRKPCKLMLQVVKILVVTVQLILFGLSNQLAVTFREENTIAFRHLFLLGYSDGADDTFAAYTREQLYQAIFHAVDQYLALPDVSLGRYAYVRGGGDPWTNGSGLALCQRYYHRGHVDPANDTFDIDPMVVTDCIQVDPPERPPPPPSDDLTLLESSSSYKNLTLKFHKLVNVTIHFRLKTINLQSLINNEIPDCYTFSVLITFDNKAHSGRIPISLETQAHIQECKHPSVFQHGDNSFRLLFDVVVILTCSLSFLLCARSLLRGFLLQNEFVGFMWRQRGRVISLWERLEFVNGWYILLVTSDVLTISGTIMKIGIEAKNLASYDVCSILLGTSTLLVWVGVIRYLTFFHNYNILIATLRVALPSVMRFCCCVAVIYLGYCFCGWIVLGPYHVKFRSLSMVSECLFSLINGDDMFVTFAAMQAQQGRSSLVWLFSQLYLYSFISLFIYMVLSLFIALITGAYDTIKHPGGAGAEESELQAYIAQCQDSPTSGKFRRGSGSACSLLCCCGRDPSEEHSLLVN
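Calcium fluorescence in TRPML1-DL cells induced overnight with Tet: a 110 s read after compound pin addition, then a 110 s antagonist read after challenge with 54-4 at 4 uM final (EC80).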
ClpP mod – qHTS Assay for Activators of ClpP. purified B. subtilis ClpP, FRET peptide cleavage, 20 min. Potency, µM (series often up to 57.5 µM), without a hit: at the highest dose activity change, negative = active. hit rate 1.9% among 340,000. AID 651965, 2013; active = well fitted falling curve with a large enough effect; inconclusive = small, poorly fitted or top-dose-only effect; inactive = no such curve, though single readings can be large or run the other way; further: potency means the concentration at half of the fitted maximal effect; the source files actives as falling curves though it sought activators and does not explain the sign; nearly all actives have a fitted effect of over 65% in size; many hits overshoot -100%
Target sequence (P80244 whole entry, looked up): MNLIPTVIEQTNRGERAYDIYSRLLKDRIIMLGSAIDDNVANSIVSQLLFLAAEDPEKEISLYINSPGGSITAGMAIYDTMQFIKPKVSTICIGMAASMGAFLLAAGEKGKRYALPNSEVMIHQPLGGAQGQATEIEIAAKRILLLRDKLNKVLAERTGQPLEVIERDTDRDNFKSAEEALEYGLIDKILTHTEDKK
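Purified B. subtilis ClpP, 10 microg/mL final in Tris/HCl pH8 with KCl, BSA, glycerol and Tween-20, cleaved an Abz/nitrotyrosine-quenched decapeptide. Fluorescence (ex 320, em 430) was read at 0 and 20 min at room temperature. Delta was normalized to 5.8 microM ADEP and DMSO/no-enzyme controls.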
PINK1 expr mod – PINK1 expression modulation; PINK1 immunofluorescence, high-content cytometry, 24 h; Potency, µM (top dose mostly 76.6 µM), inactives show top-dose activation (PINK1 increase), actives largely listed as activators; hit rate 0.2% among 410,000; AID 624263; active = well fitted activation curve with a large enough effect; inconclusive = small, poorly fitted or top-dose-only effect; inactive = flat fitted curve, though single readings scatter; cell line not stated here;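 further: potency means the concentration at half of the fitted maximal effect; % of control where 0% means no effect; nearly all actives have a fitted effect of over 65% in size; a mitochondrial uncoupler was the plate control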
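Stable cell line treated 24 h with compounds at 5 concentrations (CCCP controls), then fixed and immunostained for PINK1 plus nuclear and cell stains; PINK1 immunofluorescence quantified by laser-scanning microplate cytometry.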
Sfp PPTase inh – Sfp phosphopantetheinyl transferase inhibition; AID 1490; Q9F4F7; hit rate 3.5% among 310,000; Potency, µM, inactives show max response, negative = inhibition, most hits filed as inhibitors; Biochemical Sfp PPTase activity, qHTS; active means well fitted inhibition curve with a large enough effect; inconclusive means small, poorly fitted or top-dose-only effect, or another doubt; inactive means no such curve, though single readings can be large or run the other way;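 further: the enzyme is Sfp with the accession as filed and its product quenches rhodamine fluorescence; potency means the concentration at half of the fitted maximal effect; 0% = enzyme reaction without inhibitor and -100% = no enzyme wells; top concentration of the series not given in the record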
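Reaction rates are the 30-min fluorescence difference (ex 525, em 598 nm) in wells containing 15 nM Sfp, 5 uM rhodamine-CoA and 12.5 uM BHQ-2-YbbR at pH 7.6 with 10 mM MgCl2.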
TRPV1 potentiator – human TRPV1 potentiation; TRPV1-expressing cells, Fluo-8 calcium influx, capsaicin EC20 potentiation; host cell line not named in the record; control for the full effect not named in the record; potentiation, % at 8.33 µM; hit rate 0.02% among 320,000; active means potentiation above 80%; inconclusive means 30% to 80%; inactive means below 30%; further: 0% is about no effect
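Fluo-8 calcium influx in TRPV1-expressing cells, kinetic read (ex 480/em 520 nm). Compound added and read 3 min for agonist activity, followed by capsaicin at EC20 final and 2 min further read for enhancement.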
Menin MLL FP FL – inhibitors of human menin-MLL interaction, wild-type MLL peptide; Fluorescence polarization, fluorescein-MLL peptide displacement from menin; FP activity change, % at 61.4 µM; 290,000 tested, under 10 active; inconclusive = falling polarisation curve, or a change in total fluorescence; inactive = total fluorescence flat and polarisation flat or rising; no compound was filed as active; the % refers to the polarisation; negative = inhibition;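 further: % of control where 0% means no effect; inhibitors lower the polarisation; unlabelled MLL peptide was the positive control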
TRPML1 ag – activates the human TRPML1 channel; Q9GZU1; activation, % (no concentration beside the values); TRPML1-expressing cells, Ca2+ dye fluorescence, FDSS; host cell line not named in the record; reference of the full effect not given here; hit rate 0.12% among 410,000; in the data active = activation above about 50%; inconclusive = about 30% to 50%; inactive = below about 30%; further: 0% is about no effect; the text of the record puts the active cut at 80%
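Cells: TRPML1-DL, 1X Tet inducer, ~16 h at 37 degrees C/5% CO2. Dye: ABD Ca8 no-wash + quencher, 45-90 min RT. Read: 10 s baseline, compound add, 110 s agonist phase; 54-4 EC80 (4uM final), 110 s antagonist phase.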
An asterisk follows results filed as active; ? = inconclusive; · = not tested or not shown; [ ] = another dose, or the depositor's remark. Not a hit list; about 4.4% have a hit in one of these screens.

Values run as follows: TRPML1 blocker, ClpP mod, PINK1 expr mod, Sfp PPTase inh, TRPV1 potentiator, Menin MLL FP FL, TRPML1 ag
[1] Cc1cccc(-n2ncc3c(N(C)Cc4ccccc4)ncnc32)c1
 : 90, ?, 10.0%, ?, 6, -1.5, 3.6
[2] Cc1ccc(-c2cnc(SCCNC(=O)c3ccco3)[nH]2)cc1
 : 10, -1.4%, 1.3%, ·, -9, ·, 0.4
[3] CCCCn1c(SCc2ncc(-c3ccccc3)o2)nc2cc(S(N)(=O)=O)ccc21
 : -12, -12%, -2.9%, -4%, 13, 0.3, 7.0
[4] CNC(=O)CC(=O)Nc1ccccc1C(=O)O
 : -10, -13%, 0.1%, 20%, 2, 0.4, -0.6
[5] Cc1ccc(S(=O)(=O)c2cc3c(=O)n4ccccc4nc3n(Cc3ccco3)c2=N)cc1
 : 21, ?, ?, -8%, 0, -1.4, 0.4
[6] CC(C)(C)OC(=O)C[C@H]1C/C=C\C[C@@H](CC(=O)NCCO)C(=O)NCCOC1=O
 : -15, 0.3%, 0.6%, ·, ·, ·, -0.7
[7] COc1ccc(C(=O)NCCS(=O)(=O)NCc2ccc(F)cc2)cc1
 : 0, ·, 1.0%, ·, 6, ·, 0.9
[8] Cc1ccc(C)c(OCC(O)CN2CCCCC2C)c1 (stereo not drawn)
 : 57, -1.7%, 0.7%, 17%, -21, -5.4, 0.1
[9] Cc1ccc2nc(N(CCCN(C)C)C(=O)c3ccc(S(=O)(=O)N(C)C)cc3)sc2c1
 : -6, 0.4%, -1.6%, 7%, -3, 5.5, -0.6
[10] CCCc1nnc(NC(=O)CS(=O)(=O)c2ccc(C)cc2)s1
 : 0, ·, 0.1%, -8%, -1, -3.9, 2.1
[11] CCOc1ccc(NC(=O)CCC(=O)NNC(=O)COc2ccc(C)cc2Br)cc1
 : -4, 2.3%, 3.0%, 2%, 11, ·, -0.8
[12] CC(C)(C)OC(=O)C[C@H]1C/C=C\C[C@@H](CC(=O)NCCO)C(=O)NC[C@@H](c2ccccc2)OC1=O
 : 15, -23%, 0.8%, ·, ·, ·, -1.0
[13] CC1CCCC(C)N1C(=O)COC(=O)c1ccc2ccccc2n1 (stereo not drawn)
 : 7, -10.0%, 0.2%, ·, ·, ·, -0.1
[14] O=C(Nc1cccc(Cl)c1)c1ccc2nc(CCc3ccccc3)oc2c1
 : 16, ?, 0.3%, ·, ·, ·, 3.0
[15] Cc1nc2ccc(S(=O)(=O)NC(CC(C)C)C(=O)NCc3ccc(Cl)cc3)cc2s1 (stereo not drawn)
 : 22, -2.5%, -1.5%, ·, ·, ·, 1.2
[16] CCCC(O)(CCC)C(=O)NN(C(=O)OC)c1ccccc1
 : -2, -0.9%, 0.7%, -3%, 0, 4.2, 0.0
[17] CCCCCC(=O)N1C[C@@H](O)[C@H](n2cc(COC(=O)c3ccccc3)nn2)C[C@@H]1c1ccc(OC)cc1
 : -7, 0.8%, 0.9%, ·, ·, ·, -0.8
[18] Cc1ccc(OCCCCN2CCc3ccccc3C2)cc1
 : -6, ·, 8.6%, 1%, 27, 2.0, 0.5
[19] Cc1ccc(C)c(NC(=O)C(=O)NCC2CCCN2S(=O)(=O)c2cccs2)c1 (stereo not drawn)
 : -14, 0.8%, -0.6%, ·, -1, ·, -0.4
[20] CCOC(=O)n1cc(-c2cnc(CNC(=O)C(C)(c3ccccc3)c3ccccc3)o2)c2ccccc21
 : 20, -25%, -1.3%, 0%, 12, 2.7, -1.2
[21] NC(N)=NC(N)=Nc1ccc2ccccc2c1
 : -5, -0.1%, -0.5%, -8%, -7, -4.5, 0.1
[22] CCOC(=O)C(=CNc1ccccc1N1CCOCC1)C(=O)OCC
 : -9, ·, -0.3%, 9%, -22, 2.4, 0.3
[23] COc1ccc(N(C(=O)c2ccc(S(=O)(=O)N3CCCC3)cc2)C2C=CS(=O)(=O)C2)cc1 (stereo not drawn)
 : -3, 0.3%, -2.1%, 13%, -4, -3.0, -0.1
[24] CCOC(=O)C1(CCc2ccccc2)CCN(Cc2ccn[nH]2)CC1
 : 27, ·, 0.1%, -7%, -14, -3.5, 0.7
[25] O=C(C1CC1)N1N=C(c2ccccc2)CC1(O)C(F)(F)C(F)(F)F (stereo not drawn)
 : -3, ·, 8.9%, 1%, -18, -0.4, -0.1
[26] O=C(c1ccc(Cl)cc1)C1CCN(CC(=O)N2CCCCC2)CC1
 : 22, ·, -0.8%, 12%, -16, 4.2, -0.2
[27] Fc1cccc(CSc2nc3ccncc3[nH]2)c1
 : -9, -2.5%, 2.2%, 14%, 0, 1.8, 0.1
[28] CN1CCN(C(=O)CCn2c(=O)c3cccn3c3cccnc32)CC1
 : -15, 3.4%, 0.5%, 19%, 2, -4.0, 0.9
[29] Cc1cc(C)cc(C(=O)Nc2ccc(NC(=O)c3cccs3)cc2)c1
 : 7, 10%, 4.4%, 12%, 12, 0.5, 2.0
[30] COc1ccccc1NCc1cc(=O)oc2c(C)c(O)ccc12
 : -5, ·, 5.4%, -9%, -6, -8.6, 0.1
[31] Cc1cccc(N(CC(=O)Nc2cccnc2)S(C)(=O)=O)c1
 : 4, 0.7%, -0.6%, 16%, 8, 3.5, 0.7
[32] CC(C)Cn1c(N)c(C(=O)COC(=O)c2ccc3c(c2)OCCO3)c(=O)n(C)c1=O
 : -1, 0.4%, 0.6%, -9%, -38, 2.9, 0.4
[33] CCOC(=O)c1c(C)[nH]c(C(=O)OCC(=O)N(CC(C)C)c2c(N)n(Cc3ccccc3)c(=O)[nH]c2=O)c1C
 : 32, ?, 6.3%, ·, 10, ·, 0.8
[34] O=C(CSc1nc2ccccc2o1)N1CCN(S(=O)(=O)c2ccc3ccccc3c2)CC1
 : 10, -2.0%, 3.8%, 0%, 3, 1.9, 0.5
[35] O=[N+]([O-])c1ccc(Cl)c(/C=N/n2c(COc3ccccc3)n[nH]c2=S)c1
 : -15, -4.6%, 3.5%, ?, 1, 1.5, -0.3
[36] OC(c1ccc(CN2CCCCC2)cc1)c1ncc(-c2ccccc2)[nH]1 (stereo not drawn)
 : ·, -2.8%, 0.3%, ·, ·, ·, -0.5
[37] Cn1c(SCC(=O)c2ccccc2)nnc1-c1ccc(O)cc1
 : -13, -4.5%, -4.9%, 79µM*, 2, 3.6, -1.3
[38] CC(=O)c1c(C)n(CC(=O)NCc2ccc3c(c2)OCO3)c2ccccc12
 : -6, 0.5%, ·, -18%, 22, 6.9, 2.2
[39] CN(C)CCNC(=O)c1ccc2nc(Cc3ccccc3)oc2c1
 : 8, -3.7%, 0.3%, ·, ·, ·, 0.5
[40] C/C(=N\Nc1c([N+](=O)[O-])c(C)nn1C)c1ccc(F)cc1F
 : 31, 0.2%, 2.1%, -6%, -3, -3.7, 0.8
[41] On1nnc2c3ccccc3c3ccccc3c21
 : 4, ·, 0.4%, 9%, 5, -2.8, -0.7
[42] COc1ccc(Cl)cc1NC(=S)NCc1cccnc1
 : 9, -2.0%, 1.5%, 11%, -6, -0.6, 0.4
[43] CN1CCN(C(=O)C(=O)c2cn(CC(=O)N3CCCCCC3)c3ccccc23)CC1
 : 0, -1.7%, 0.4%, ·, ·, ·, 0.1
[44] COCCNC(=O)c1cc(-c2cccs2)on1
 : 3, -8.4%, 2.5%, 25%, 23, 2.3, -0.7
[45] CCOC(=O)N1CCN(C(=O)c2cc(-c3ccc(OCC)cc3)nc3ccccc23)CC1
 : 32, 28µM*, -1.0%[38.3 µM], -11%, 1, 0.2, 1.1
[46] Cc1cc(C=C2C(=O)c3ccccc3C2=O)c(C)n1-c1ccccc1
 : -9, -0.6%, 9.2%[38.3 µM], -5%, 5, ?, 10
[47] COc1ccc(C(F)(F)F)cc1N/C=C/c1nnnn1-c1ccc(C)cc1
 : 45, ·, 3.6%, -12%, 10, -0.1, 0.9
[48] CCNc1ncc2nc(-c3ccccc3)c(=O)n(Cc3cccc(OC)c3)c2n1
 : ·, ·, 0.5%, -3%, ·, 11, ·
[49] COc1ccc(CCC(=O)NCCOc2ccc(Cl)cc2)cc1
 : 16, -1.1%, -0.2%, 11%, -4, -3.7, -1.2
[50] COc1cccc(-c2cc(C(F)(F)F)nc(N3CCCCC3)n2)c1
 : -6, ?, 5.4%, 5%, 8, 3.3, 0.9
[51] Cc1ccc(NC(=O)CN2c3cccc4cccc(c34)S2(=O)=O)cc1S(=O)(=O)N1CCOCC1
 : -6, ?, 3.2%, 9%, ?, 7.0, -0.3
[52] CCOC(=O)/C=C(\C)Nc1cc(C)nn1-c1ccccc1
 : 24, -0.5%, 0.3%, 9%, -2, 3.4, 1.8
[53] Cn1c(Cc2cccc3ccccc23)nnc1SCC(=O)N1CCN(c2cccc(Cl)c2)CC1
 : 2, -2.9%, -1.4%, 14%, -1, -2.3, 0.6
[54] CCOCCCn1c(=N)c(C(=O)NCc2cccnc2)cc2c(=O)n3ccccc3nc21
 : -8, 4.1%, 2.1%, ·, ·, ·, -0.7
[55] COc1ccc2nc(NC(=O)C3CCN(C(=O)c4ccc(F)cc4)CC3)sc2c1
 : 20, -3.9%, 1.2%, 4%, 18, ·, -0.4
[56] O=C(CN1C=NS(=O)(=O)c2ccccc21)Nc1ccc(Br)cc1
 : 21, 3.7%, 4.8%, ·, ·, ·, -0.3
[57] COc1cc(NC(=S)N(C)C)c(OC)cc1Cl
 : -7, ·, -1.8%, 3%, -1, 0.1, 1.5
[58] CC(C)CSc1nc(N2CCOCC2)c2c(c1C#N)CC(C)(C)SC2
 : -13, ?, 3.0%, -14%, -6, 2.8, 1.8
[59] COc1ccc(C[C@H](N)C(=O)N[C@H]2[C@@H](O)[C@H](n3cnc4c(N(C)C)ncnc43)O[C@@H]2CO)cc1
 : 4, 0.1%, -0.6%, ·, -6, ·, 0.1
[60] O=C1c2ccccc2-c2onc3c(N4CCN(C5CCCCC5)CC4)cc(NCCO)c1c23
 : -5, -0.3%, -1.4%, ·, ·, ·, -0.2
[61] CCc1ccc(N2CC(C(=O)NC3CCCCC3C)CC2=O)cc1 (stereo not drawn)
 : 2, 1.0%, 1.3%, 17%, -10, 3.7, -1.3
